High-throughput results as filed in PubChem BioAssay.
GIV Gai3 FP: inhibitors of GIV GBA-motif binding to rat Galpha-i3 | Galpha-i3/FITC-GIV peptide fluorescence polarization, 90 min; stronger effect = lower value; scaled: aluminum fluoride 0%, vehicle 100% | percent of control (FP), % (no concentration beside the values) | hit rate 0.42% among 210,000;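 active = replicate mean at 85% of control or lower, very high polarization wells dropped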;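 also: wells of about 15 µL received 100 nL stock; the first replicate is given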
Target sequence (P08753 whole entry, looked up): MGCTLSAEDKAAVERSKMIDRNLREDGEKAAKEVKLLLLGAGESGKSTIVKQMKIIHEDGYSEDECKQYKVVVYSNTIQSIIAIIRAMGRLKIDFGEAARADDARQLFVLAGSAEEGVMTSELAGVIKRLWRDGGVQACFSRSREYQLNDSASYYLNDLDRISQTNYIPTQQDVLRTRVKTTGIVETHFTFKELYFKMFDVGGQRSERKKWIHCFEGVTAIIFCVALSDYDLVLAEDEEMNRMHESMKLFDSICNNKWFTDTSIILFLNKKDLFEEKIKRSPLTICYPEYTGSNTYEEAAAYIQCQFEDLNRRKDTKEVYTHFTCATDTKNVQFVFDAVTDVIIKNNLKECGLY
HCMV UL50-53 inh: disrupts HCMV UL50-UL53 complex binding; hit rate 0.15% among 190,000; AID 1918969; HTRF UL50-UL53 interaction, normalized percent inhibition; inhibition, % (test concentration not listed);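 active = both replicates at 50% or more, plus weaker picks with an unusually low signal ratio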;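 also: stock transfer was 100 nL into about 20 µL; 0% = negative control wells and 100% = wells with untagged competitor protein; inactives centre near -12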
Sa growth inh: S. aureus growth inhibition; S. aureus RN4220 growth, OD600, 20 h, 42 °C; stronger effect = lower value; relative growth, % (concentration not given with the values); hit rate 0.53% among 170,000;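 active = growth at 42 °C up to 50% and 20 or more points under that at 30 °C, or under 10% at both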;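 also: 300 nL library stock went into each well; scaled to the means of positive and negative controls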
Sa growth inh second temp: also measured in Sa growth inh; calls as there; relative growth, %; measured here: growth at 30 °C;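 optical density after 20 h as mean of two plates; 100% = untreated growth and lower means inhibition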
Numbers without * were called inactive; x = not tested or not shown.

The line under a structure holds: GIV Gai3 FP, HCMV UL50-53 inh, Sa growth inh, Sa growth inh second temp
CCOC(=O)C(C)Sc1nc(N2CCOCC2)c2c(c1C#N)CCCC2 (stereo not given)
  109, -3, x, x
Oc1c(Br)cc(C2N=C(c3ccccc3)NO2)cc1Br (stereo not given)
  x, 7, 52, 27
CCc1ccccc1N(C)C(=O)c1nn(C)c2c1CSc1ccccc1-2
  100, -15, 115, 100
CCOCCOC(=O)c1ccc2c(c1)N(Cc1ccccc1)C(=O)c1ccccc1S2
  103, 0, x, x
COc1cc(C(=O)Nc2cc(-c3nc4ccc(C)cc4o3)ccc2C)ccc1OCc1ccc(Cl)cc1
  100, -11, x, x
CCOC(=O)c1c(C)oc2nc(C)nc(NCc3ccccc3OC)c12
  105, x, 85, 90
CN(C)c1ccc(C(CNS(=O)(=O)c2cccc(F)c2)N(C)C)cc1 (stereo not given)
  101, -13, x, x
Cc1cc(C)cc(NC(=O)c2cc3ccccc3o2)c1
  100, x, 73, 76
c1ccc2c(c1)nc1n2CCN1
  97, -15, 86, 79
CC(C)(C)c1ccc(OCC(=O)N(Cc2ccco2)Cc2ccccc2F)cc1
  101, -15, 71, 73
O=C(CCn1nnc2ccccc21)Nc1nnc(COc2ccccc2F)s1
  101, 17, 102, 101
COc1ccc(C2=NN(C(=O)CCC(=O)O)C(c3cc4ccccc4nc3Cl)C2)cc1OC (stereo not given)
  104, -33, x, x
Cc1ccc(-n2nc(C)cc2NC(=O)CC#N)cc1
  x, -14, 115, 92
COC(=O)c1ccccc1NC(=O)C1Cc2cc(S(=O)(=O)N3CCCCC3)ccc2N1C(C)=O (stereo not given)
  101, 5, x, x
CC(C)n1c(SCC(N)=O)nc2ccccc21
  105, -6, 105, 96
NS(=O)(=O)c1ccc(NC(=O)c2ccc3noc(-c4ccccc4)c3c2)cc1
  98, -33, x, x
CC(=O)SC1CC(=O)N(c2cc(C(F)(F)F)cc(C(F)(F)F)c2)C1=O (stereo not given)
  101, -4, 110, 52
Cc1c(OC2CCCCC2=O)ccc2c(-c3ccccc3)cc(=O)oc12 (stereo not given)
  x, -6, 116, 89
N#Cc1ccc(NC(=O)CC2(CC(=O)O)CCCC2)cc1
  111, -3, 101, 91
COc1cccc(C(=O)N2N=C(c3ccc(F)cc3)CC2(O)C(F)(F)F)c1 (stereo not given)
  96, -26, x, x
Cc1nn(C(CC(=O)O)C(=O)O)c(C)c1Cl (stereo not given)
  102, x, 101, 92
COC(=O)c1cc(Nc2nc3ccccc3nc2NS(=O)(=O)c2ccc(C)cc2)ccc1Cl
  114, -11, 104, 81
CCCn1c(=O)c2ccccc2n2c(=O)n(CC(=O)c3ccc(C)cc3C)nc12
  107, 5, x, x
CCn1c(=O)c(C(=O)Nc2ccncc2)c(O)c2ccccc21
  104, -21, x, x
O=C(Nc1ccc(Cl)c(Cl)c1)Nc1nc(-c2ccccc2)cs1
  x, -13, 90, 77
Cn1c(C(=O)NCCCN2CCCC2=O)cc2c(=O)oc3ccccc3c21
  102, 8, x, x
CCOC(=O)c1c(/N=c2\oc3ccc(OC)cc3cc2C(N)=O)sc2c1CCCC2
  107, -26, x, x
CC1CC(C)CN(C(=O)C2c3ccccc3C(=O)N(C)C2c2cccs2)C1 (stereo not given)
  104, x, 80, 88
CC(C)c1ccc(NC(=O)CSc2ncc3c(n2)-c2ccccc2N(C)S3(=O)=O)cc1
  102, x, 86, 93
O=C(NCCC1=CCCCC1)c1cc2ccccn2n1
  108, -31, x, x

Remaining list, next part:
The line under a structure holds: GIV Gai3 FP, HCMV UL50-53 inh, Sa growth inh, Sa growth inh second temp
Cc1nc2cccnc2n1C1CCN(S(=O)(=O)c2ccc(Cl)cc2)CC1
  97, x, 89, 84
COc1ccccc1N1CCN(CC(=O)N2CCCC2)CC1
  97, -2, 92, 86
CCCCn1cc(S(=O)(=O)c2ccc(OC)cc2)c(=O)c2cc(CC)ccc21
  105, -32, 100, 79
Nc1nn2cc(-c3ccccc3)nc2s1
  x, -19, 108, 91
CCOc1ccccc1NC(=O)Cn1c(=O)n(CCC(C)C)c(=O)c2cccnc21
  98, 4, 84, 97
CN1CCC2(CC1)N=C(c1cc(Cl)ccc1O)CC(c1ccccc1O)N2 (stereo not given)
  100, -36, x, x
CCc1ccc(C(C)NC(=O)c2cccc(C3CCCN(C(=O)NC(C)C)C3)c2)cc1 (stereo not given)
  104, -27, x, x
CC1CCN(Cn2nc(-c3ccc(F)cc3)oc2=O)CC1
  x, -59, 98, 89
Cc1cc(C)c2nc(C)cc(C(=O)NCCC3=CCCCC3)c2c1
  104, -39, x, x
CC/C=C\C/C=C\C/C=C\C/C=C\C/C=C\CCCC(=O)OCC
  x, -47, 91, 96
Cc1ccc(OCC(=O)NCCO)c(C)c1
  101, -20, 83, 83
CCOC(=O)c1nc(Nc2ccc(C(=O)OCC(C)C)cc2)c2ccccc2n1
  99, -67, 80, 81
CCOC(=O)c1cnc2cc(F)c(F)cc2c1Nc1ccccc1O
  106, 22, 97, 100
Cc1nc(SCc2nc(-c3ccccc3)oc2C)[nH]c(=O)c1Cc1ccccc1
  106, 6, x, x
O=C(Cn1c(=O)sc2ccccc21)Nc1nc2c(s1)CCCC2
  101, 1, 117, 72
COc1ccccc1-c1cc(C(F)(F)F)n2ncc(C(=O)OCc3ccc4c(c3)OCO4)c2n1
  103, -33, x, x
COc1ccc(NC(=O)Nc2ccccc2SCC2=NNC(=O)c3ccccc3O2)cc1
  101, 18, x, x
CC1CC(C)CN(c2cc(C(=O)O)c3cc(NC(=O)C(C)(C)C)ccc3n2)C1 (stereo not given)
  109, -47, x, x
CCOc1ccc(NC(=O)NCCn2nnc3cc(S(=O)(=O)N(C)C)ccc32)cc1
  107, x, 133, 94
O=C(CN1CCCC1)Nc1ccc(F)cc1
  105, -11, 102, 103
C=CCN1C(=O)C(C)(C)N(C(C)=O)c2ccccc21
  110, -1, 83, 101
CCC(C)c1ccc(NC(=O)COC(=O)c2ccco2)cc1 (stereo not given)
  x, -8, 113, 92
Cc1cccc(NC(=O)c2cc3ccccn3n2)c1
  103, -20, x, x
CSCCn1c(-c2ccccc2)cc(C(=O)N2CCCCC2)c1C
  95, 6, 106, 109
Cc1ccc(NC(=O)CC(C)N2CCCC2)cc1 (stereo not given)
  100, -5, x, x
Cc1c2cnn(-c3ccccc3)c(=O)c2c(C)n1CC(=O)NCCc1ccc(Cl)cc1
  101, -18, 113, 88
CCOC(=O)c1sc(N/N=C/C2CC=CCC2)nc1C (stereo not given)
  106, -8, 111, 81
CN1C(=O)C2C=CC=CC2N=C1SCC(N)=O (stereo not given)
  x, -15, 100, 93
CCN(CC)C(=O)c1sc2c(c1C)c(=O)n(-c1ccc(C)c(C)c1)c(=O)n2CC(=O)Nc1ccc(F)cc1
  104, x, 76, 101
Cc1ccc(S(=O)(=O)N2CCC(c3nc(Cn4c(=O)oc5ccccc54)no3)CC2)cc1
  105, -32, x, x

Entries of single compounds as entered above:
COc1ccccc1-c1cc(C(F)(F)F)n2ncc(C(=O)OCc3ccc4c(c3)OCO4)c2n1 is listed with GIV Gai3 FP = 103; HCMV UL50-53 inh = -33; Sa growth inh = x; Sa growth inh second temp = x
c1ccc2c(c1)nc1n2CCN1 is listed with GIV Gai3 FP = 97; HCMV UL50-53 inh = -15; Sa growth inh = 86; Sa growth inh second temp = 79
Cc1nc2cccnc2n1C1CCN(S(=O)(=O)c2ccc(Cl)cc2)CC1 is listed with GIV Gai3 FP = 97; HCMV UL50-53 inh = x; Sa growth inh = 89; Sa growth inh second temp = 84

Arranged by molecular weight (ascending): 3 of the compounds above.
The line under a structure holds: GIV Gai3 FP, HCMV UL50-53 inh, Sa growth inh, Sa growth inh second temp
O=C(NCCC1=CCCCC1)c1cc2ccccn2n1
  108, -31, x, x
CCOC(=O)c1c(C)oc2nc(C)nc(NCc3ccccc3OC)c12
  105, x, 85, 90
CCCn1c(=O)c2ccccc2n2c(=O)n(CC(=O)c3ccc(C)cc3C)nc12
  107, 5, x, x

The main list resumes, starting 3 compounds before the break.
The line under a structure holds: GIV Gai3 FP, HCMV UL50-53 inh, Sa growth inh, Sa growth inh second temp
CN1C(=O)C2C=CC=CC2N=C1SCC(N)=O (stereo not given)
  x, -15, 100, 93
CCN(CC)C(=O)c1sc2c(c1C)c(=O)n(-c1ccc(C)c(C)c1)c(=O)n2CC(=O)Nc1ccc(F)cc1
  104, x, 76, 101
Cc1ccc(S(=O)(=O)N2CCC(c3nc(Cn4c(=O)oc5ccccc54)no3)CC2)cc1
  105, -32, x, x
C=CCn1c(=S)[nH]c2ccccc21
  x, -13, 97, 89
O=C(CSc1ccc2c(c1)OCCO2)NCC1COc2ccccc2O1 (stereo not given)
  x, -25, 96, 81
COc1ccc(NC(=O)c2ccco2)cc1NC(=O)c1c(OC)cccc1OC
  92, 8, 104, 90
COc1cccc(-n2c(SCC(=O)Nc3ccccc3)nc3c(oc4ccccc43)c2=O)c1
  104, x, 105, 54
Cc1ccnc(NCn2cnc3ccccc32)c1
  107, -32, 110, 100
O=C(NCCNc1ccc2ccccc2c1)c1cccn2c(=O)c3sccc3nc12
  106, x, 105, 72
Cc1cc(=O)[nH]c(-n2nc(C)cc2NC(=O)c2ccc(Br)cc2)n1
  103, -27, x, x
O=S1(=O)CCC(S(=O)(=O)C2CCS(=O)(=O)C2)C1 (stereo not given)
  x, -1, 119, 89
O=C(O)c1ccccc1NCn1nnc2ccccc21
  x, -44, 110, 87
CCC(C)NC(=O)CCCN1C(=O)CCn2nc(-c3cccn3C)cc21 (stereo not given)
  111, x, 98, 91
COC(=O)c1cc(OC)c(OC)cc1NC(=O)CC1CCCCC1
  105, -5, 105, 94
CCCc1cc2c(=O)c(-c3csc(C)n3)coc2cc1O
  x, 5, 103, 92
Cc1ccc(C2=Nc3ccccc3N(CC(=O)NC(C)CCc3ccccc3)C(=O)C2)cc1 (stereo not given)
  99, -30, x, x
Cc1ccc(Cn2cc(CCC(=O)O)c3ccccc32)cc1
  108, x, 100, 73
CCOC(=O)c1csc(-c2sccc2COc2ccccc2)n1
  103, -14, 97, 98
O=C(NCc1ccccc1)NC(c1ccccc1)c1nnc(-c2ccc(Cl)cc2)o1 (stereo not given)
  101, -3, x, x
N/N=C/C1=C(N2CCOCC2)C(=C\c2ccccc2)/CC1
  x, -14, 93, 94
CCCN1C(=O)/C(=N\OCC(=O)N2CCCc3ccccc32)c2ccccc21
  x, -36, 86, 86

Gathered by group: the entries above containing an NH in an aromatic ring (3)
The line under a structure holds: GIV Gai3 FP, HCMV UL50-53 inh, Sa growth inh, Sa growth inh second temp
Cc1nc(SCc2nc(-c3ccccc3)oc2C)[nH]c(=O)c1Cc1ccccc1
  106, 6, x, x
C=CCn1c(=S)[nH]c2ccccc21
  x, -13, 97, 89
Cc1cc(=O)[nH]c(-n2nc(C)cc2NC(=O)c2ccc(Br)cc2)n1
  103, -27, x, x
